# Screening data from PubChem.
# KCNQ2 enhance = KCNQ2 (rat) channel potentiation | O88943 | CHO-K1 KCNQ2, FluxOR thallium flux fluorescence; hits give high values | B-score at 10 µM | 0.54% of 310,000 active | AID 2239;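 active = fluorescence ratio B-score at least 3 SD of library B-scores, with initial fluorescence B-score within 3 SD, cut at about 5.3 in these data; same plate scores as AID 2156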;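 note: B-score of peak minus minimum over baseline fluorescence ratio after K+ and Tl+ stimulus; positive B-score means potentiation of KCNQ2 with more thallium influx and brighter signal; only the inactives scoring about 0 or higher are listed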
# Target sequence (O88943 whole entry, looked up): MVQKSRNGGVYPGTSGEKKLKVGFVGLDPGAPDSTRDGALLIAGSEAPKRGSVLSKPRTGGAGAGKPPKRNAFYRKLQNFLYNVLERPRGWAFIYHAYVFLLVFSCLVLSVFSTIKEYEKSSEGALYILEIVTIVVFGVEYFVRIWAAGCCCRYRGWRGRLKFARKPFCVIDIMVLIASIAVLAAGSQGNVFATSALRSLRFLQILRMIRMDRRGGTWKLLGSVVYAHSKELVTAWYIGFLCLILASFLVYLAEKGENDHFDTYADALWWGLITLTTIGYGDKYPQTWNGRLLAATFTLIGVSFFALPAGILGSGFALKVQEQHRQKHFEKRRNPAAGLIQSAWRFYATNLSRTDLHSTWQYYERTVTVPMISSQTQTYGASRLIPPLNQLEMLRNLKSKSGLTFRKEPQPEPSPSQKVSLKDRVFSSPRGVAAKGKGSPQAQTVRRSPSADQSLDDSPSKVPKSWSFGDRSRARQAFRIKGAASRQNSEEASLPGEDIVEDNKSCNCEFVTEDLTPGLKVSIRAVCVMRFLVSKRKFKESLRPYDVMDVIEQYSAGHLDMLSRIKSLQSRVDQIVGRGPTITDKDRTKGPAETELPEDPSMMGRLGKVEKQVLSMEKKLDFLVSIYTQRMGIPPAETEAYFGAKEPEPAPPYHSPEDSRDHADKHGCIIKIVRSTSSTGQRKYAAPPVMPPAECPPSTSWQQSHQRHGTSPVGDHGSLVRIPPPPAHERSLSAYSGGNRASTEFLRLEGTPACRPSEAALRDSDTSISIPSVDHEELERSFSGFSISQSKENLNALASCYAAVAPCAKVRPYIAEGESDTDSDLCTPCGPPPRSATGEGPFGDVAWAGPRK
# KCNQ2 enhance baseline = recorded beside KCNQ2 enhance, whose call it bears; B-score; compound at 10 µM; measured here: initial fluorescence intensity artifact check;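 brightness before thallium and not channel activity; 0 = typical well and far values either way flag optical interference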
# * = called active by the depositor; / = not tested or not shown. An excerpt, so the mix of outcomes need not match the whole.
SMILES,KCNQ2 enhance,KCNQ2 enhance baseline
O=C(NNS(=O)(=O)c1ccccc1C(F)(F)F)c1cccc(S(=O)(=O)Nc2ccccc2Cl)c1,0.73,0.83
Cn1c(SCC(=O)Nc2sccc2C(N)=O)nnc1-c1ccncc1,0.69,0.88
COc1ccc(-c2csc(NC(=S)NC(=O)/C=C/c3ccc(C(C)C)cc3)n2)cc1OC,0.63,-0.19
O=[N+]([O-])c1cccc(S(=O)(=O)c2ccc(N3CCCCC3)c([N+](=O)[O-])c2)c1,0.04,0
COc1ccccc1C1(O)C(=O)Nc2ccc(C)cc21 (centres undefined),0.14,-2.4
CCOc1ccc(C(=O)NCCn2cc(SCC(=O)Nc3cc(C)on3)c3ccccc32)cc1,0.02,0.24
CC1CN(C(=O)COC(=O)c2ccc(Cl)nc2)CC(C)O1 (centres undefined),0.25,-1.2
CC1CC(C)CN(S(=O)(=O)c2ccc(NC(=O)C3CC(=O)N(Cc4ccccc4)C3)cc2)C1 (centres undefined),0.8,-0.69
CC(OC(=O)C1CC1)C(=O)Nc1ccc([N+](=O)[O-])cc1Cl (centres undefined),0.82,0.48
CC1CCc2sc(C(=O)N/N=C/c3ccc(O)cc3)cc2C1 (centres undefined),0.2,-0.45
CCOc1ccc(N2C(=O)C3C(C2=O)C3(c2ccccc2)c2ccccc2)cc1 (centres undefined),0.04,-0.28
Nc1c(Br)cc(Br)cc1CNC1CCC(O)CC1 (centres undefined),0.67,/
Cc1ccc(S(=O)(=O)NC(c2ccccc2)C(C)C(=O)n2nc(C)cc2C)cc1 (centres undefined),1,0.01
CCn1c(=O)c2ccccc2n(CC(=O)NCCC2=CCCCC2)c1=O,0.63,-2.1
COc1ccc(NC(=O)CN2CCC(C(=O)c3ccc(F)cc3)CC2)c(OC)c1,0.04,0.55
NC(=O)c1nsc(C(=O)N(c2ccccc2F)C(C(=O)NCc2ccc(F)cc2)c2ccc(O)cc2)c1N (centres undefined),1.4,-1
Cc1ccc(C)c(N2CCN(CC3CCCCC3)CC2)c1,1,-0.76
CCC(C)N1C(=O)CCC1C(=O)NCc1ccc2c(c1)OCO2 (centres undefined),1.5,-1.5
Cc1cccc(N2CCN(C(=O)c3cc(COc4ccc(F)c(F)c4)on3)CC2)n1,0.54,0.49
COc1ccc2c(c1)-c1nc(/N=C/c3cccc(OC)c3O)sc1CC2,1.9,0.32
CCNC(=O)c1ccc(NS(=O)(=O)c2ccc3[nH]c(=O)[nH]c3c2)cc1,0.19,-1.4
Cc1cc(=O)[nH]c(SC(C(=O)O)c2ccccc2)n1 (centres undefined),0.27,-0.35
CCn1c(NCc2ccccc2NS(=O)(=O)c2ccc(C)cc2)nc2ccccc21,0.44,0.14
COc1cc(/C=N/NC(=O)c2ccncc2)cc2c1OCO2,0.06,-1.9
Nc1cc(=O)[nH]c(SCc2nnnn2-c2ccc(Cl)cc2)n1,0.01,0.14
COc1ccc(S(=O)(=O)N2CCOCC2)cc1NC(=O)c1cccc(Cl)c1,0.75,-1.1
O=C1Cc2ccccc2C(c2ccccc2)N1 (centres undefined),2.1,0.11
O=C(c1ccco1)C(O)c1ccco1 (centres undefined),0.11,-2.2
C=CCn1c(COc2cccc3ccc(C)nc23)nnc1SCC(N)=O,1.4,-0.68
Cc1cccc(NC(=O)c2cccc(Cn3cc(Br)c([N+](=O)[O-])n3)c2)c1C,1.8,-0.95
COc1ccc(SC[C@H](CC(C)C)N2CCN(C)CCC2=O)cc1,2.3,-1.3
O=C(Cn1cnc2c(oc3ccccc32)c1=O)N1CCCc2ccccc21,0.64,1
COc1ccc(C2=NN(C(=O)CSc3ncccn3)C(c3cccc(OC)c3OC)C2)cc1 (centres undefined),0.08,0.65
CCOC(=O)c1sc(SCC(=O)Nc2ccc(N(C)C)cc2)nc1N,0.95,0.04
Cc1ccc(C(C(=O)NC2CCCCC2)N(Cc2cccnc2)C(=O)c2csnn2)cc1 (centres undefined),0.43,0.42
O=C1c2ccccc2C(=O)N1OS(=O)(=O)c1ccccc1,0.57,-0.68
COc1ccc(NC(=O)c2ccccc2-c2ccc(C(F)(F)F)cc2)cc1S(=O)(=O)N1CCOCC1,0.48,1.1
CC(C)(C)c1cc(C(=O)N/N=C/c2ccc(O)cc2)n(-c2ccccc2)n1,0.87,-0.12
CCCn1nnnc1NCc1ccc(N(CC)CC)cc1,1.4,-0.84
COCCN1CCN(C(=O)c2ccc3oc(CCc4ccccc4)nc3c2)CC1,0.37,0.16
Cc1cc2ncn(CCC(=O)NC(C)(C)C)c2cc1C,0.7,-0.24
O=C(NC1CCCCC1)N1CCCC1,0.53,-0.5
CCN(CC)c1ccc(NC(=O)CC2Oc3ccccc3NC2=O)c(C)c1 (centres undefined),0.78,0.22
O=C1CC(c2ccccc2F)c2cc3c(cc2N1)CCC3 (centres undefined),1.6,0.56
CCOc1cc(C)c(Cl)cc1S(=O)(=O)NC1CC(C)(C)NC(C)(C)C1,0.59,0.89
CN(C(=O)CC1C(=O)NCCN1Cc1ccc(F)c(F)c1)C1CCOCC1 (centres undefined),0.12,-1.2
COC(=O)c1c(NS(C)(=O)=O)sc2c1CCCC2,0.04,-1.2
S=C(NCc1ccc2c(c1)OCO2)NCc1ccco1,1.1,1.8
CC(=O)Nc1cccc(NC(=O)CSc2nn3c(=O)c(C)nnc3s2)c1,1.4,-0.03
CC(C)C(=O)NS(=O)(=O)c1ccc(NS(C)(=O)=O)cc1,1,0.96
O=C(O)c1nn(CCSc2ccccc2F)c(=O)c2ccccc12,0.49,-0.62
CC(C(=O)O)N1C(=O)/C(=C/C=C/c2ccco2)SC1=S (centres undefined),1.4,0.36
CCc1ccccc1NC(=O)CSc1n[nH]c(C)c1[N+](=O)[O-],1,-1
Cc1ccc(N2CC(C(=O)OCC(=O)c3ccc(F)cc3)CC2=O)cc1 (centres undefined),1.1,-2.4
Cc1ccccc1-n1c(-c2csc3ccccc23)n[nH]c1=S,0.04,-0.03
CC1CCN(S(=O)(=O)c2nnc(NC(=O)COc3ccccc3F)s2)CC1,1.4,-0.45
O=C(COC(=O)/C=C/c1ccc(F)cc1)Nc1ccc2[nH]c(=O)[nH]c2c1,0.01,2.3
COc1ccc(C(=O)NCc2c(CC(C)C)oc(C)c2C(=O)O)cc1,0.01,-0.87
CN=C1C=C/C(=N/N=c2\ccn(O)cc2C)C=C1C,0.96,-3.1
COc1ccc(N2CCC(CNC(=S)Nc3cccc(C)c3)C2)cc1 (centres undefined),0.01,-0.49
# Remaining list, next part
SMILES,KCNQ2 enhance,KCNQ2 enhance baseline
CC1CCN(S(=O)(=O)c2ccc(NC(=O)C3CSC4(C)CCC(=O)N34)cc2)CC1 (centres undefined),0.07,-0.97
CCOc1ccc(CC(=O)C2C(=O)CCCC2=O)cc1OCC,0.04,0.17
O=C(COC(=O)c1cccnc1)Nc1ccc(F)cc1,0.29,0.41
Nn1cnnc1N/N=C/c1cccc(Cl)c1Cl,1.5,0.17
COc1cccc(NC(=O)CCCNC(=O)Cn2cnc3sc(C)c(C)c3c2=O)c1,0.48,-0.26
CN1C/C(=C/c2ccsc2)C(=O)/C(=C/c2ccsc2)C1,0.66,1
O=C(O)c1ccc(COc2ccc([N+](=O)[O-])cc2)o1,1,-0.01
CC(Sc1nnc(CNC(=O)c2ccccc2F)n1C)C(=O)Nc1nccs1 (centres undefined),0.62,-0.35
COc1cc(/C=N/Nc2cc(C)nc(N)n2)ccc1O,0.84,0.21
C=C(C)C(=O)Nc1cccc(C2=NOC3(C2)C[C@@H](C(N)=O)N(C(=O)C2(C)CC2)C3)c1 (some centres undefined),0.5,-0.29
CC(=O)c1sc(NC(=O)c2ccc(Br)o2)nc1C,0.06,1.9
Cc1ccccc1NC(=S)N1CCN(c2ccccc2)CC1,0.05,0.5
COc1ccc2oc(C(=O)OCC(=O)N3CCC(C)CC3)c(C)c2c1,4.6,1.2
CCN(/C=N/S(=O)(=O)c1ccc(Cl)cc1)CC,0.1,-1.2
COc1ccc(-c2nnc(SCC(=O)c3cc(C)n(Cc4cccs4)c3C)o2)cc1,0.02,-0.49
O=c1c(=Nc2ccccc2O)c(=O)c2ccccc12,0.05,1.5
CN(c1ccccc1C(=O)NCc1ccco1)S(C)(=O)=O,0.38,1.5
CCCCNC(=O)N1CCCC(C(=O)c2cc(C)c(OC)c(C)c2)C1 (centres undefined),0.9,-0.27
O=c1cc(CO)oc(CN2CCCC2)c1O,1.3,-0.28
CN(C)Cc1c(C(=O)Nc2ccccc2)[nH]c2ccccc12,1.3,2.2
Cc1cc(Nc2ccc(F)cc2C)n2ncnc2n1,0.51,0.72
COc1ccc(OC)c(NC(=O)C(CCSC)NS(=O)(=O)c2cccs2)c1 (centres undefined),1.6,-0.64
CN1CCC(=NNC(=O)C(=O)Nc2cccc(Br)c2)CC1,1,-0.15
CCCCCC(=O)Nc1ccc(S(=O)(=O)Nc2nccnc2OC)cc1,2,-0.01
CC(=O)OC(COc1ccc(F)cc1)Cn1cnc2ccccc21 (centres undefined),0.43,-2.2
CN(Cc1nc(-c2cnccn2)no1)Cc1n[nH]c2c1CCCCC2,0.03,0.01
Cc1nn(-c2ccccc2)c2sc(C(=O)OC3CCOC3=O)cc12 (centres undefined),1.1,-0.43
COc1cccc(-c2cc(C(=O)N3CCN(Cc4ccc5c(c4)OCO5)CC3)on2)c1,1.1,-2
COc1cccc(N2CCN(C(=O)CN(c3ccc(C)cc3)S(=O)(=O)c3c(C)n[nH]c3C)CC2)c1,1.8,0.51
Cc1ccc(/C=N\n2c(-c3ccccc3)n[nH]c2=S)s1,0.91,-1.6
CCN(Cc1ccccc1)C(=O)CCS(=O)(=O)c1ccc2c(c1)oc(=O)n2C,0.01,0.5
Cc1cnc(C(=O)OCC(=O)NC23CC4CC(CC(C4)C2)C3)cn1,1.1,-1
CC(=O)N1C(=O)C2(Nc3ccccc3N2)c2ccccc21,0.16,0.47
CCOc1ccc(NC(=O)N2CCC(NC(=O)C(Cc3ccccc3OC)NC(C)=O)CC2)cc1 (centres undefined),0.05,-0.32
CCN(CCCNC(=O)CCCn1c(=O)[nH]c2ccccc2c1=O)c1cccc(C)c1,0.61,-0.52
Cc1cc(C)cc(Nc2ccc([N+](=O)[O-])nc2[N+](=O)[O-])c1,1.3,-0.44
O=C(Nc1ccc(Br)c2ccccc12)c1ccc2ccccc2c1O,0.6,-0.49
CCOC(=O)C1=C(CC)Nc2ccccc2N=C1NC(=O)Cn1cnc2ccccc2c1=O,0.59,-0.35
COc1ccc2cc3cc(C(=O)NCCN4CCN(c5ccccc5F)CC4)oc3nc2c1,2,-0.67
CN(C)S(=O)(=O)n1cc(/C=C(\NC(=O)c2ccccc2Cl)C(=O)NCCN2CCOCC2)c2ccccc21,1.4,-0.15
NS(=O)(=O)c1cccc(NC(=O)c2cc3ccccc3o2)c1,0.46,-1.5
COc1ccc(S(=O)Cc2ccc(C(=O)NC3CC3)o2)cc1 (centres undefined),2.1,-1
CCOCCCNC(=O)c1cn(CC)c2ccc(S(=O)(=O)N3CCCC3)cc2c1=O,0.04,0.24
CC(=O)Nc1nc(C)c(C(C)=O)s1,0.74,-1.2
CCC1(c2ccccc2)NC(=O)N(CC(=O)Nc2ccccc2N2CCCC2)C1=O (centres undefined),0.11,1.9
COc1ccccc1NS(=O)(=O)c1cc(NC(=O)CCC(=O)c2cccs2)ccc1Cl,0.11,-0.87
C=CCN(c1ccccc1)S(=O)(=O)c1ccc2c(c1)N(C(C)=O)CCO2,0.13,0.77
N/C(=N\OC(=O)CCCOc1ccccc1)c1ccc(Br)cc1,0.19,0.25
CCn1nc(CC(=O)Nc2ccc(-n3cnnn3)c(C)c2)c2ccccc2c1=O,0.14,-0.92
O=[N+]([O-])c1ccc(CN2CCC(Cc3ccccc3)CC2)cc1,0.36,0.04
Cc1ccc(NC2=C(Cl)C(=O)OC2OC(C)C)c(C)c1 (centres undefined),0.34,-0.84
NS(=O)(=O)c1cccc(NC(=O)COC(=O)C2CCCCC2)c1,0.01,-0.71
OCC1(Cc2ccccc2)CCN(Cc2cc3ccccc3o2)CC1,0.17,-0.28
